# VACV mCherry inh: qHTS for Stage-Specific Inhibitors of Vaccinia Orthopoxvirus: mCherry Reporter Primary qHTS | Vaccinia virus mCherry reporter infection, fluorescence; about a quarter of the inactives have no number | Potency, µM (titrated, usually from 36.5 µM), for inactives: at the top dose activity change, negative = inhibition, actives largely listed as inhibitors | 310,000 tested, 0.63% active | AID 720579, 2013; active = well fitted inhibition curve with a large enough effect; inconclusive = small, poorly fitted or top-dose-only effect; inactive = no such curve, though single readings can be large or run the other way; tested in A549 cells; note: nearly all actives have a fitted effect of over 35% in size; inactives centre near -10
# VACV Venus inh: qHTS for Stage-Specific Inhibitors of Vaccinia Orthopoxvirus: Venus Reporter Primary qHTS | Potency, µM (doses to about 36.5 µM), for the others: at the top dose activity change, negative = inhibition, usual class: inhibitors | 330,000 tested, 0.46% active | Vaccinia virus Venus reporter expression, fluorescence | AID 720580, 2013; active means well fitted inhibition curve with a large enough effect; inconclusive means small, poorly fitted or top-dose-only effect; inactive means no such curve, though single readings can be large or run the other way; tested in A549 cells; note: nearly all actives have a fitted effect of over 30% in size; inactives centre near -10
# * marks the source's active call; other numbers are inactive results; i = inactive; ? = inconclusive; · = not tested or not shown; & = joins results of further samples; [ ] = remark or other dose. % is set by controls: 0 for no effect and ±100 for the full control effect; potency is the fitted concentration of half-maximal effect.
canonical_smiles | VACV mCherry inh | VACV Venus inh
CCCOc1ccc(N2C(=O)CC(N3CCCC(C(=O)N4CCCC4)C3)C2=O)cc1 (stereo not given) | i | -12%
O=C(Nc1ccccc1C(=O)NC(Cc1ccc(O)cc1)C(=O)O)c1ccccc1 (stereo not given) | i | 7%
O=C1C=C(c2ccc3[nH]ccc3c2)CCC1 | -1% | -14%
COc1ccc(NCc2nnc(SCC(=O)Nc3ccc(OC)cc3OC)o2)cc1 | -17% | -12%
O=C(NCCO)c1cccc2c1-c1ccccc1C2=O | i | 5%
COc1ccccc1NC(=O)c1cc(Sc2nncn2C)nc2ccccc12 | · | 11µM*
Nc1n[nH]c(N)c1N=Nc1ccccc1 | -5% | -7%
CCOC(=O)c1ccc(-c2ccc(/C=N/NC(=O)Cc3nnc(N)s3)o2)cc1 | -12% | -4%
COc1cccc(Cn2c(C(C)n3c(C)nc4ccccc43)nc3ccccc32)c1 (stereo not given) | -13% | -13%
Cc1[nH]c2ccccc2c1C(=O)C(=O)NCC1CCCO1 (stereo not given) | 9% | -10%
CCOc1ccccc1N=Nc1c(C)[nH]n(C(N)=S)c1=O | -4% | -4%
CCOC(=O)c1c(-c2ccc(-c3ccccc3)cc2)csc1NC(=O)c1cccc(N2C(=O)CCC2=O)c1 | i | -9%
NC(=O)N1CCCC1C(=O)Nc1ccc(Cl)c(Cl)c1 (stereo not given) | -15% | -11%
Cc1noc(C)c1CSc1nc2ccccc2nc1NS(=O)(=O)c1ccc(Cl)cc1 | -13% | -10%
c1ccc2c(NCC3CCCO3)nc(-c3ccncc3)nc2c1 (stereo not given) | -26% | -13%
Cc1cc(F)ccc1Nc1nc2ccccc2n2nnnc12 | -27% | -23%
CCO[C@@H]1OC(C(=O)N2CCN(Cc3ccc4c(c3)OCO4)CC2)=C[C@H](c2cn(C(C)=O)c3ccccc23)[C@H]1CCCO | i | -29%
CCN1C(=O)c2ccccc2S(=O)(=O)c2ccc(C(=O)NCC(OC)OC)cc21 | i | -20%
CC(=O)OC1N=C(c2ccccc2)c2cc(Br)ccc2NC1=O (stereo not given) | -21% | -3%
Cc1cccc(NC(=O)CSc2nc3ccccc3o2)c1 | -16% | -3%
Cc1ccc(NC(=O)c2ccco2)c(NC(=O)c2ccccc2)c1 | -2% | 7%
CSc1ncc2c(n1)-c1ccccc1N(Cc1ccccc1C)S2(=O)=O | -5% | 2%
OCCN(Cc1ccccc1)c1ncnc2sccc12 | i | -16%
COC(=O)CSc1ncnc2c1sc1nc3c(cc12)COC(C)(C)C3 | -17% | -6%
Cc1ccccc1OCCC(=O)OCC(=O)NC(C)c1ccccc1 (stereo not given) | i | -8%
O=C1NN=C(c2ccc(Cl)cc2)CC1c1cccc(Br)c1 (stereo not given) | i | -24%
Cc1ccccc1C(=O)Nc1cccc(-c2cn3ccccc3n2)c1 | i | -14%
COc1ccc2c(Cl)c(C(=O)N/N=C/c3ccc4c(c3)OCO4)sc2c1 | -15% | 1%
CC1(C)CC2CC(C)(CN2C(=O)C23CCC(C)(C(=O)O2)C3(C)C)C1 (stereo not given) | -10% | -25%
CCOC(=O)N1CCN(C(=O)COC(=O)CN(C)S(=O)(=O)c2ccc(NC(C)=O)cc2)CC1 | i | -10%
Cc1noc(C)c1CSCC(=O)Nc1cc(S(=O)(=O)N2CCOCC2)ccc1OCC(F)(F)F | -14% | -17%
COc1ccc(NC(=O)CNC(=O)c2c(C)nn(C)c2Cl)cc1 | 0% | -16%
COCCN(Cc1cc2ccc(C)cc2n2nnnc12)Cc1nnnn1C(C)(C)C | · | 2%
Nc1c(C(=O)Nc2ccc(Cl)c(C(F)(F)F)c2)sc2nc3c(cc12)N1CCC3CC1 | ? | ?
Cc1onc(-c2ccccc2Cl)c1C(=O)NCCn1c(C)cc2ccccc21 | ? | -10%
COc1ccccc1[C@@H]1C(c2cccc(Cl)c2)=NN(c2ccccc2)[C@H]1C(=O)N1CCOC1=O | 0% | -13%
COc1ccc(C)cc1NC(=O)C1CCCN(S(=O)(=O)c2ccc3c(c2)oc(=O)n3C)C1 (stereo not given) | 0% | -4%
O=C1CC(c2ccc(F)cc2)CC2=C1C=Nc1ccccc1N2 (stereo not given) | -17% | -23%
COCCN(C(=O)COC(=O)CCc1ccccc1)c1c(N)n(Cc2ccccc2)c(=O)[nH]c1=O | -22% | -10%
O=C1C=C(c2ccc3c(c2)oc2ccccc23)C[C@@H](c2ccc(Cl)cc2)C1 | -21% | -21%
CCc1nc2ccccc2n1CC(=O)N(C(C)CC)C1CCS(=O)(=O)C1 (stereo not given) | -11% | -5%
O=C(CNc1ccc(Br)cc1)c1ccc(Br)s1 | ? | -10%
CCn1c(SCc2nc3scc(-c4ccccc4)c3c(=O)[nH]2)nnc1-c1ccc(Cl)cc1 | -11% | -8%
CSc1cccc(NC(=O)COc2ccccc2)c1 | -24% | -21%
COc1ccc(-c2csc(NC(=O)C3=COCCO3)n2)c(OC)c1 | -15% | -9%
O=C(NCCCN1CCOCC1)c1onc(CSc2ccccn2)c1C(=O)NCCCN1CCOCC1 | i | -13%
COc1ccccc1S(=O)(=O)Nc1cc(S(=O)(=O)N2CCCCC2)ccc1N1CCOCC1 | i | -2%
COC(=O)C1=C(c2cccc(OC)c2OC)C[C@@H]2CC[C@H]1N2C(=O)NCc1ccccc1 | -26% | -13%
COc1cccc(C2(CC(=O)N3CCN(c4ccccn4)CC3)CC(=O)N(C3CCCC3)C2=O)c1 (stereo not given) | -1% | -17%
O=C(NCc1ccccc1Cl)c1ccccc1Oc1ccccc1 | -20% | 2%
Cc1cc(NC(=O)c2ccco2)ncc1NC(=O)CCc1ccccc1 | i | -23%
Cc1ccc(C(=O)Nc2ccc(N3CCN(S(C)(=O)=O)CC3)cc2)cc1C | -7% | -5%
C#CCOCCOCCOCCNc1nc(N2CCOCC2)nc(N2CCN(C(=O)[C@H](Cc3cc4ccccc4[nH]3)n3cc([C@@H](N)Cc4ccc(O)cc4)nn3)CC2)n1 | ? | -9%
CC(=O)c1ccc(NC(=O)C(C)OC(=O)COc2ccc(C#N)cc2)cc1 (stereo not given) | -7% | -2%
CCOc1ccc(C(=O)Nc2ccc(N3CCN(C(=O)c4ccco4)CC3)cc2)cc1Br | -18% | -23%
CN(C)c1nc(Nc2ccccc2)nc(N(C)C)n1 | -14% | -11%
COc1ccc(C(=O)Nc2cc(-c3nc4ccccc4s3)ccc2OC)cc1 | -14% | -17%
CC1=C(C(=O)N(C)C)CC(CC(=O)NC2CC2)C(=O)N1Cc1ccc(C(C)(C)C)cc1 (stereo not given) | -14% | -15%
CN1CCN(c2ccc(Cl)cc2NC(=O)/C=C/c2ccc(F)cc2)CC1 | -25% | -15%
COc1cc(C(=O)NCCc2csc(-c3ccc(Cl)cc3)n2)cc(OC)c1OC | -9% | 0%

# Reformatted: results already given.
# Screens in order: VACV mCherry inh	VACV Venus inh
- CCc1nc2ccccc2n1CC(=O)N(C(C)CC)C1CCS(=O)(=O)C1 (stereo not given)
 : -11%	-5%
- O=C(CNc1ccc(Br)cc1)c1ccc(Br)s1
 : ?	-10%

# (cont.)
canonical_smiles | VACV mCherry inh | VACV Venus inh
CCc1cccc(CC)c1NC(=S)NCC(c1cccnc1)N1CCOCC1 (stereo not given) | -7% | -9%
COc1cc(-c2nc3cccc(C)n3c2Nc2ccc3c(c2)OCCO3)ccc1O | 9% | 5%
O=C(COC(=O)C1CC(=O)N(c2ccc3c(c2)OCCO3)C1)NC1CCCc2ccccc21 (stereo not given) | · | -16%
CCc1ccc(NC(=O)C2CCN(c3c(N4CCCC4)c(=O)c3=O)CC2)cc1 | -3% | -13%
O=C(OCc1nnc(-c2ccccc2)o1)c1ccc([N+](=O)[O-])o1 | -12% | 2%
CC(=O)Nc1coc2ccc(Br)cc12 | · | -11%
COC(=O)c1c(NC(NC(=O)c2ccccc2)(C(F)(F)F)C(F)(F)F)sc2c1CCN(C)C2 | i | -7%
COc1ccccc1-c1noc(CCC(=O)Nc2cccc(C)c2)n1 | · | -24%
O=C(CSc1cn(Cc2ccccc2)c2ccccc12)N1CCOCC1 | 3% | -5%
CCc1ccccc1N(CC(=O)NCc1ccccc1)C(=O)CCC(=O)Nc1ccccn1 | -19% | -17%
Oc1ccc(C=NN=Cc2ccco2)c(O)c1 | i | -7%
O=C1[C@H]2[C@@H](/C=C/c3ccccc3)N3C(=O)CN(Cc4ccccn4)C(=O)[C@@]3(Cc3ccccc3)[C@H]2C(=O)N1c1ccccc1 | -11% | -2%
COc1cc(NC(=O)Cn2nc(-c3ccc(C)c(C)c3)ccc2=O)cc(OC)c1 | -6% | -3%
CCOC(=O)c1cccc(NC(=O)CN(c2ccc(C)cc2)S(=O)(=O)c2c(C)n[nH]c2C)c1 | -13% | -5%
O=C(NC1CCN(Cc2ccccc2)CC1)C1CCCN(S(=O)(=O)c2cccc3nonc23)C1 (stereo not given) | · | 3%
CC1CCN(C(=O)CC(NC(N)=O)c2ccccc2Cl)CC1 (stereo not given) | -9% | 5%
O=C(NC1CN2CCC1CC2)c1cccc(Cl)c1 (stereo not given) | -7% | -1%
CC(=O)Nc1cccc(NC(=O)CSc2cn(CC(=O)N(C(C)C)C(C)C)c3ccccc23)c1 | -5% | 0%
COc1cccc(CN(C)C(=O)CNC(=O)c2ccc3c(c2)OCO3)c1OC | -15% | -23%
CCCCC(=O)NC(=S)Nc1cccc(NC(=O)c2ccco2)c1 | -6% | -8%
O=C(NC(=S)NCC1CCCO1)c1ccc(Cl)cc1Cl (stereo not given) | -13% | -10%
CCOc1ccccc1N1CCN(C(=O)/C=C/c2cccc([N+](=O)[O-])c2)CC1 | -23% | -17%
CCOC(=O)C1(Cc2cccc(OC)c2)CCN(Cc2cccn2-c2nccs2)CC1 | -5% | -12%
COc1cccc(C2NC(=S)NC3=C2CCc2ccccc23)c1 (stereo not given) | -8% | -10%
CCCC(=O)Nc1c(C(=O)OCC)[nH]c2ccccc12 | -17% | ?
CN1CCN(c2ccc(Cl)cc2NC(=O)CCN2C(=O)c3ccccc3C2=O)CC1 | i | -2%
COc1ccc(OCC(=O)NC(=S)Nc2ccc(S(=O)(=O)Nc3cc(OC)nc(OC)n3)cc2)cc1 | -14% | -7%
CCOC(=O)C1(Cc2ccc(OC)cc2)CCN(C(=O)CCn2cccn2)CC1 | -9% | -11%
O=C(c1ccccc1)c1ccc(NCCCn2ccnc2)c([N+](=O)[O-])c1 | -10% | -18%
CC1(c2nnc(-c3ccccc3)o2)CC(c2ccc([N+](=O)[O-])cc2)=NO1 (stereo not given) | -9% | -21%
CCc1ccc(CNC(=O)c2cc(-c3ccc(Cl)s3)nc3ccccc23)cc1 | -11%[7.34 µM] | -8%[7.34 µM]
O=C(Cc1ccc(Cl)cc1)NNC(=O)c1cnccn1 | -11% | -5%
NC(=O)c1cc(S(=O)(=O)Nc2cccc(F)c2)co1 | 0% | 0%
Cc1nn(CCC(=O)NNC(=S)Nc2ccc([N+](=O)[O-])cc2)c(C)c1[N+](=O)[O-] | i | -3%
Cc1cc2c(cc1NS(=O)(=O)c1cccc(C#N)c1)n(C)c(=O)c(=O)n2C | -2% | 0%
O=C1OC(c2ccccc2)=NC12CC2c1ccc(Cl)cc1 (stereo not given) | -5% | -4%
Cc1ccccc1C(=O)NNC(=S)Nc1cccc(C(F)(F)F)c1 | ? | ?
Cc1sc2nc(CN(C(=O)c3cccs3)C3CCCC3)[nH]c(=O)c2c1C | ? | ?
Cc1nnc(SCC(=O)NCC(=O)Nc2ccc(F)c(F)c2F)n1N | -18% | 11%
CCc1ccc(NC(=O)CCNC(=O)Cn2cnc3ccccc3c2=O)cc1 | -21%&-7% | -8%&-1%

# Next part; it opens with the four that closed the last part.
canonical_smiles | VACV mCherry inh | VACV Venus inh
Cc1ccccc1C(=O)NNC(=S)Nc1cccc(C(F)(F)F)c1 | ? | ?
Cc1sc2nc(CN(C(=O)c3cccs3)C3CCCC3)[nH]c(=O)c2c1C | ? | ?
Cc1nnc(SCC(=O)NCC(=O)Nc2ccc(F)c(F)c2F)n1N | -18% | 11%
CCc1ccc(NC(=O)CCNC(=O)Cn2cnc3ccccc3c2=O)cc1 | -21%&-7% | -8%&-1%
Cn1cc(C(=O)C(=O)N2CCCC2)c2ccccc21 | -24% | -8%
NC(=S)NN=C1CCSCC1 | ? | ?
COc1cc(C(=O)CC2(O)C(=O)N(Cc3ccccc3Cl)c3ccccc32)cc(OC)c1OC (stereo not given) | -10% | -6%
O=C1C=C(c2cccc3c2oc2ccccc23)CCC1 | -19% | -17%
O=C(CN1C(=O)c2cccnc2Oc2ccc(Cl)cc21)NC1CCCCC1 | -15% | -8%
CN(C)c1cccc(C(=O)OCC(=O)Nc2ccccc2Cl)c1 | -3% | -5%
Cc1ccc(S(=O)(=O)NN=C2CC3CCC2(C)C3(C)C)cc1 (stereo not given) | -13% | -1%
Cc1ccc2c(C(=O)CN3CCCC(C)C3)c(C)[nH]c2c1 (stereo not given) | ? | -6%
O=C(Nc1cc(C(F)(F)F)ccc1Cl)c1noc2c1CCCCC2 | -2% | 9%
CC(NC(=O)c1cccnc1)c1nnc2n1CCN(Cc1ccc(-c3ccccc3)cc1)CC2 (stereo not given) | -11% | -1%

# Screening data (PubChem BioAssay)
